gsp antag – gsp mutant antagonism; gsp-mutant cells, cAMP HTRF, 30 min; control for the full effect not named in the record; Potency, µM (highest dose often 76.9 µM), for the others: at the top dose activity change, negative = inhibition, most hits filed as inhibitors; 340,000 compounds, 0.4% hits; AID 624288; active = falling curve of any shape with a large fitted effect; inconclusive = falling curve, mostly with a smaller effect; inactive = flat or rising curve; cell line not stated here;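 also: intracellular cAMP measured with PDE inhibitor Ro 20-1724 present during compound exposure; potency is read from the fitted curve at half-maximal effect; % is scaled to controls: 0 for no effect and ±100 for the full control effect; nearly all actives have a fitted effect of over 65% in size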
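Cells in G418 medium, seeded 16-24 h, 37C; buffer exchange to DPBS + 1 mM CaCl2, 0.5 mM MgCl2, 0.05% BSA; cpds in DMSO + […] (300 uM stock), 30 min 37C; HTRF cAMP detection.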
ClpP mod – qHTS Assay for Activators of ClpP | ATP-dependent Clp protease proteolytic subunit (Bacillus subtilis (strain 168)), P80244 | purified B. subtilis ClpP, FRET peptide cleavage, 20 min | Potency, µM (top dose mostly 57.5 µM), without a hit: top-dose activity change, negative = active | 340,000 compounds, 1.9% hits; active = well fitted falling curve with a large enough effect; inconclusive = small, poorly fitted or top-dose-only effect; inactive = no such curve, though single readings can be large or run the other way; also: potency is read from the fitted curve at half-maximal effect; the source files actives as falling curves though it sought activators and does not explain the sign; nearly all actives have a fitted effect of over 65% in size; many hits overshoot -100%
Target sequence (P80244 whole entry, looked up): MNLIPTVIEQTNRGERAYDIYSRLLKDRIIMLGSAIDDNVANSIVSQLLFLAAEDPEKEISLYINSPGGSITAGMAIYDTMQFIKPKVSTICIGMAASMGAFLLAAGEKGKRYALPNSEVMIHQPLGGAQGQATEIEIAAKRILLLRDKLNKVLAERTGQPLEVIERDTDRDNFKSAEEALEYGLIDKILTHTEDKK
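Purified B. subtilis ClpP, 10 microg/mL final in Tris/HCl pH8 with KCl, BSA, glycerol and Tween-20, cleaved an Abz/nitrotyrosine-quenched decapeptide. Fluorescence (ex 320, em 430) was read at 0 and 20 min at room temperature. Delta was normalized to 5.8 microM ADEP and DMSO/no-enzyme controls.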
TRPML1 inh – inhibitors of human TRPML1 channel | Q9GZU1 | TRPML1-inducible cells, Ca2+ dye fluorescence, FDSS; hits give low values; inhibition of EC80 agonist-evoked calcium signal | activity change, negative = inhibition, % (no concentration beside the values) | 390,000 compounds, 0.02% hits | AID 624415; in the data active means activity change below about -50%; inconclusive means about -30% to -50%; inactive means above about -30%;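 also: stimulus is agonist 54-4 at its EC80 concentration; % is scaled to controls: 0 for no effect and ±100 for the full control effect; compound concentration not given in the record; the text of the record puts the active cut at -80%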
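TRPML1-DL cells, Tet-induced overnight (~16 h, 37 °C) at 1,500 cells/well, were loaded with Ca8 no-wash dye plus quencher for 45-90 min at room temperature. Compounds were pinned during FDSS kinetic reading; agonist 54-4 at EC80 (4 uM final) then added.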
gsp ag – activates gsp, the McCune-Albright syndrome mutation; gsp mutant cells, cAMP HTRF, 30 min; control for the full effect not named in the record; Potency, µM (doses to about 76.9 µM), inactives show top-dose activation (cAMP increase), actives largely listed as activators; 340,000 compounds, 0.13% hits; active = well fitted activation curve with a large enough effect; inconclusive = small, poorly fitted or top-dose-only effect, or another doubt; inactive = no such curve, though single readings can be large or run the other way; cell line not stated here;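 also: phosphodiesterase inhibitor Ro 20-1724 added with compounds to block cAMP breakdown; potency is read from the fitted curve at half-maximal effect; nearly all actives have a fitted effect of over 60% in size; about a fifth of the inactives were tested at one dose only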
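Cells stably selected in G418 were plated at 2000/well, grown 16-24 hr, then given compounds in DMSO with the PDE inhibitor […] (300 uM solution added) for 30 min at 37C; cAMP was read by HTRF.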
Menin MLL FP FL – menin-MLL binding inhibition, fluorescein peptide; Fluorescence polarization, fluorescein-MLL peptide displacement from menin; FP activity change, % at 61.4 µM; 290,000 tested, under 10 active; inconclusive = falling polarisation curve, or a change in total fluorescence; inactive = total fluorescence flat and polarisation flat or rising; no compound was filed as active; the % refers to the polarisation; negative = inhibition;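 also: % of control where 0% means no effect; inhibitors lower the polarisation; unlabelled MLL peptide was the positive control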
TRPV1 potentiator – human TRPV1 potentiation; 320,000 compounds, 0.02% hits; potentiation, % at 8.33 µM; Q8NER1; TRPV1-expressing cells, Fluo-8 calcium influx, capsaicin EC20 potentiation; host cell line not named in the record; control for the full effect not named in the record; AID 540277; active means potentiation above 80%; inconclusive means 30% to 80%; inactive means below 30%; also: 0% is about no effect
Target sequence (Q8NER1 whole entry, looked up): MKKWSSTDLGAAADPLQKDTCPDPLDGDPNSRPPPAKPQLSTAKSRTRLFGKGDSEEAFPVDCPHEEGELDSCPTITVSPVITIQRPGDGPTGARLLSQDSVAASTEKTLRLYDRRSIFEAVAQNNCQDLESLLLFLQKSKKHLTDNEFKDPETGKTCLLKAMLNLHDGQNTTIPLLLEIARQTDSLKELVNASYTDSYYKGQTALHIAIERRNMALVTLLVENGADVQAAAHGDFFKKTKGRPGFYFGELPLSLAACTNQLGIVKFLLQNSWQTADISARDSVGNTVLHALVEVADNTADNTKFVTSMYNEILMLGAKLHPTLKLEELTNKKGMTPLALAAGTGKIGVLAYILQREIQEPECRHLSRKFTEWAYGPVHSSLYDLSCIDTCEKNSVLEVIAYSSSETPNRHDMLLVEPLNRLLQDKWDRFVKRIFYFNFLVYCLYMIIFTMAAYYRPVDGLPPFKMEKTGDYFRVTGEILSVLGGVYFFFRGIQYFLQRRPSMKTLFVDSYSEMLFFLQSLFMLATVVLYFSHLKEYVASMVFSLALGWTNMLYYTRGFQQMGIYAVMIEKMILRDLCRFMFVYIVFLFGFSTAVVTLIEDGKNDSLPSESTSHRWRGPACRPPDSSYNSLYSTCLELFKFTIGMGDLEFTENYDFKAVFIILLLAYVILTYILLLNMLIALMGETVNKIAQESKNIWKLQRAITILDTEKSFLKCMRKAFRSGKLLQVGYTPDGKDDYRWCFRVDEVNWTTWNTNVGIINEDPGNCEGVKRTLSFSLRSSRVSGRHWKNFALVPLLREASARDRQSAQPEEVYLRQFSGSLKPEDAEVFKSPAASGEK
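Cells expressing TRPV1 were dye-loaded with Fluo-8 and read kinetically: 10 s baseline, 3 min after compound (agonist portion), then 2 min after EC20 capsaicin (allosteric enhancer portion). Calcium-bound dye fluorescence at 480/520 nm.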
Sfp inh – Sfp phosphopantetheinyl transferase inhibition | Biochemical Sfp PPTase activity, qHTS | AID 1490 | 310,000 compounds, 3.5% hits | Potency, µM, for inactives: max response, negative = inhibition, actives largely listed as inhibitors | Q9F4F7; active = well fitted inhibition curve with a large enough effect; inconclusive = small, poorly fitted or top-dose-only effect, or another doubt; inactive = no such curve, though single readings can be large or run the other way;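 also: the enzyme is Sfp with the accession as filed and its product quenches rhodamine fluorescence; potency is read from the fitted curve at half-maximal effect; 0% = enzyme reaction without inhibitor and -100% = no enzyme wells; top concentration of the series not given in the record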
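Fluorescence-quenching assay with 15 nM Sfp, 5 uM rhodamine-CoA and 12.5 uM BHQ-2-labelled ybbR peptide in pH 7.6 Hepes/MgCl2 buffer. Enzyme was pre-incubated with compound for 15 min at room temperature. Rate was taken from the 30-min fluorescence change (525/598 nm).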
* = called active by the depositor; ? = inconclusive; . = no result given; & = joins results of further samples; [ ] = dose if it differs, or a comment.

A first look, four compounds:
SMILES | gsp antag | ClpP mod | TRPML1 inh | gsp ag | Menin MLL FP FL | TRPV1 potentiator | Sfp inh
CCN(C(=O)C(C)OC(=O)C1C(C(=O)OC)=C(C)NC(C)=C1C(=O)OC)c1ccccc1 (stereo not drawn) | 3% | -17% | 5 | -24% | -0.4 | ? | 2%
C[N+](C)(C)CCOC(=O)C1(c2ccccc2)CCCC1 | 6% | -0.7% | -17 | -56%[inhibitor] | -0.7 | 5 | 14%
Cn1cc(C(N)=O)c2ccccc21 | 9% | -2.9% | . | . | -0.3 | 9 | 15%
CC1CC(C)CN(S(=O)(=O)N2CCCC(C(=O)NC3CCCCC3)C2)C1 (stereo not drawn) | 13% | -1.8% | 7 | -19% | -0.1 | -18 | 4%

Main list (from the top)
SMILES | gsp antag | ClpP mod | TRPML1 inh | gsp ag | Menin MLL FP FL | TRPV1 potentiator | Sfp inh
CCN(C(=O)C(C)OC(=O)C1C(C(=O)OC)=C(C)NC(C)=C1C(=O)OC)c1ccccc1 (stereo not drawn) | 3% | -17% | 5 | -24% | -0.4 | ? | 2%
C[N+](C)(C)CCOC(=O)C1(c2ccccc2)CCCC1 | 6% | -0.7% | -17 | -56%[inhibitor] | -0.7 | 5 | 14%
Cn1cc(C(N)=O)c2ccccc21 | 9% | -2.9% | . | . | -0.3 | 9 | 15%
CC1CC(C)CN(S(=O)(=O)N2CCCC(C(=O)NC3CCCCC3)C2)C1 (stereo not drawn) | 13% | -1.8% | 7 | -19% | -0.1 | -18 | 4%
COc1ccc(NC(=O)CSc2ncnc3c2cnn3Cc2ccccc2)cc1OC | 5% | -1.1% | -1 | ? | 1.2 | 28 | 18%
CCCCn1nc2cc(C(=O)NCCc3ccc(C)cc3)ccc2c1OCC | -1% | 3.4% | 8 | . | 3.6 | 7 | 2%
Cc1ccccc1OCC(=O)Nc1cc(S(=O)(=O)N2CCOCC2)ccc1N1CCCC1 | -19% | -2.2% | -1 | -1% | . | 1 | .
Cc1ccc(C(=O)N(CC(=O)Nc2sc(C)c(C)c2C(N)=O)C2CCCC2)cc1 | . | . | 21 | 11%[15.4 µM] | 0.7 | -4 | -7%
CC(=O)N1CCN(c2ccnc3cc(Cl)ccc23)CC1 | -11% | . | -18 | -8%[15.4 µM] | -2.3 | 0 | 14%
Cc1ccccc1OCC(=O)NCCC(=O)O | 5% | -0.2% | -7 | 5% | 5.3 | 1 | 20%
CCOC(=O)CCC(NC(=O)c1ccc(NCN2C(=O)CCC2=O)cc1)C(=O)OCC (stereo not drawn) | 5% | -13% | -19 | 17% | 2.5 | 3 | 9%
CN(CCc1cn[nH]c1)Cc1nc(C(c2ccccc2)c2ccccc2)no1 | -11% | . | 28 | -16% | 5.6 | -7 | 18%
COCCNC(=O)C1CCC(=O)N1S(=O)(=O)c1ccc(C)cc1 (stereo not drawn) | 13% | -5.3% | 7 | -16%[15.4 µM] | 2.5 | 4 | 17%
CCN(CC)S(=O)(=O)c1cc(Cl)ccc1OC | 11% | . | -3 | -3%[15.4 µM] | -5.9 | 14 | 5%
Cc1ccc2cc(C(c3nnnn3C3CCCC3)N(Cc3ccccc3)Cc3ccco3)c(=O)[nH]c2c1 (stereo not drawn) | -3% | 22µM* | 14 | 17% | -0.8 | 24 | ?
O=C(O)CSc1nc(-c2ccccc2)nc2c1oc1ccccc12 | -28% | -2.4% | -11 | 17% | 1.6 | 7 | 21%
CCc1ccc(CN2CCC(Oc3ccc(C(=O)N4CCCCC4)cc3)CC2)cc1 | 6% | -0.6% | 31 | 13%[15.4 µM] | . | 20 | 0%
COc1ccc(NCC(=O)N/N=C(\C)c2cc3ccccc3o2)cc1 | -18% | . | 2 | 7% | 0.4 | 5 | -26%
Cc1nnc(C)n1/N=C/c1ccc(-c2ccccc2)cc1 | 6%[15.4 µM] | -4.8% | 11 | -1% | 0.6 | ? | ?
Brc1ccc(-n2c(SCc3nc4ccccc4[nH]3)nnc2-c2ccncc2)cc1 | 9% | -1.0% | -10 | -1% | 5.1 | 15 | 18%
Cc1ccc(C2NNC(=O)C2NC(=O)c2ccccc2)cc1 (stereo not drawn) | 0% | -0.7% | -17 | -4% | 0.2 | -3 | -11%
O=C(c1cn(-c2ccccc2)nc1-c1ccc(Br)cc1)N1CCOCC1 | 12% | 0.3% | -9 | 2% | 1.8 | -9 | 20%
CCc1ccc(N=C2NC(=O)/C(=C/c3cc(OC)c(OC)c(OC)c3)S2)cc1 | 0% | . | -1 | -6% | 1.4 | -12 | -12%
O=C(O)CCn1c(SCCOc2ccccc2F)nc2ccccc21 | -12% | -1.6% | -20 | -7% | 0.1 | 5 | 15%
CC(C#N)Sc1ncnc2sc3c(c12)CCC3 (stereo not drawn) | -5% | -0.2% | 8 | ? | 0.1 | 4 | 1%
COc1ccc(C(=O)O)cc1S(=O)(=O)N(C)C | 8% | . | 11 | 22% | 2.7 | -1 | -3%
NS(=O)(=O)c1ccc(CCNC(=O)c2ccc([N+](=O)[O-])s2)cc1 | 15% | 1.0% | -3 | -4%[15.4 µM] | -1.0 | -3 | 3%
O=C1/C(=C/c2cccnc2)Cc2ccc(Cl)cc21 | 5% | -0.7% | -12 | -5% | . | -4 | .
COc1ccc(NC(=S)N2CCN(C/C=C/c3ccccc3)CC2)cc1OC | 6% | -1.2% | -12 | -5% | 0.7 | -1 | 17%
CCN(CC)S(=O)(=O)c1ccc(-c2cn3ccccc3n2)cc1 | . | 3.8% | -13 | ? | . | . | .
COc1ccc(Cl)c(S(=O)(=O)N2CCCC2)c1 | -2% | ? | -2 | -27% | 2.0 | 3 | 20%
Cc1nn(-c2ccccc2)c2nc(N)c(C#N)c(-c3ccc(O)c(O)c3)c12 | -15% | -2.2% | 27 | -9% | 2.5 | 3 | ?
COc1ccc(OCCNS(=O)(=O)c2cccc([N+](=O)[O-])c2)cc1 | . | . | 11 | -1%[15.4 µM] | 3.5 | -2 | -10%
CCOCCc1c(O)nc(SC)[nH]c1=O | 5% | 2.0% | 20 | 24% | -1.9 | 8 | -12%
C#CCn1cc(/C=C2\NC(=O)NC2=O)c2ccccc21 | -4% | . | -20 | ? | 0.4 | -9 | -14%
Cc1ccc(NC(=O)C2CCN(S(=O)(=O)c3ccc4c(c3)NC(=O)C(C)S4)CC2)cc1Cl (stereo not drawn) | ? | 0.0% | 4 | -11% | . | ? | 29%
COc1ccc(C2CC(=O)C(C=NCCN3CCN(C(=S)Nc4ccccc4)CC3)=C(O)C2)cc1 (stereo not drawn) | -17% | . | -17 | ? | 3.5 | 5 | -2%
N#CC(CC(=O)c1ccc(Cl)cc1)c1ccccc1 (stereo not drawn) | -5% | -2.4% | 21 | -27% | . | . | .
CCOc1c(Cl)cc(C(=O)Nc2cccc(C(=O)O)c2)cc1Cl | -1% | 1.7% | -10 | 37% | 0.8 | 7 | 22%
Cc1cc(=O)n2nc(N3CCCC(C(=O)N4CCN(C)CC4)C3)sc2n1 (stereo not drawn) | 17% | -2.6% | 4 | 3% | 3.3 | -6 | 6%
CC(C)(C)S(=O)(=O)c1cnc2c(S(=O)(=O)c3ccccc3)cnn2c1N | -1% | -7.9% | -4 | -23% | -1.6 | 2 | -8%
CC(C)COc1ccc(C(=O)OCC(=O)NCCC2=CCCCC2)cc1 | 3% | 0.3% | -1 | 1% | . | -10 | .
O=C(Nc1cccnc1)c1cc(-c2ccc(Cl)cc2)on1 | 9% | -2.2%&-3.2% | 5&5 | 17% | 0.5 | 23 | 13%
COc1cc(CNCCCN2CCOCC2)c(Br)cc1OCC(=O)Nc1ccccc1C | -1% | . | -14 | 30% | 0.7 | -14 | 9%
COc1ccc(OC)c(C(=O)COC(=O)c2ccc([N+](=O)[O-])o2)c1 | -4% | -0.5% | -7 | -25% | . | . | .
Cc1cc(C)c(C)c(S(=O)(=O)NCC(=O)Nc2ccc(F)cc2)c1C | -4% | 1.1% | -20 | 21% | . | -13 | 9%
COc1ccc(S(=O)(=O)N2CCOC2CNC(=O)C(=O)NCc2cccnc2)cc1C (stereo not drawn) | 1% | . | -1 | -5%[15.4 µM] | 1.4 | -2 | 18%
COc1ccc(OCCOc2ccc(S(=O)(=O)N3CCCC3)cc2C(N)=O)cc1 | 0% | -0.3% | -18 | -37%[inhibitor] | . | 5 | .
CC(C)[C@H](NC(=O)c1ccccc1)C(=O)OCC(=O)N1CCCc2ccccc21 | 4% | -3.2% | -6 | -26% | -4.3 | -9 | 4%
Cc1cc(C(=O)NCCCn2ccnc2)sc1-c1ccccc1 | -3% | 22µM* | 43 | 17% | 1.9 | -6 | -4%

Additional compounds:
SMILES | gsp antag | ClpP mod | TRPML1 inh | gsp ag | Menin MLL FP FL | TRPV1 potentiator | Sfp inh
CC(=O)NCCc1ccc(S(=O)(=O)Nc2ccc(NC(=O)c3ccc(F)cc3)cc2)cc1 | 4% | . | 23 | 3%[15.4 µM] | 4.4 | 4 | 11%
CC(C)[C@H](NC(=O)c1ccccc1F)C(=O)OCC(=O)NC(=O)NC1CCCCC1 | -7% | 0.2% | 0 | -5%[15.4 µM] | . | . | .
Cc1c([N+](=O)[O-])c([N+](=O)[O-])nn1CC(=O)N1CCCCC1 | 0% | -3.6% | 3 | 0% | 3.1 | 4 | 29%
COc1ccc(OC)c(NC(=O)c2ccccc2SC)c1 | 6% | -2.0% | 5 | -6% | -1.6 | -3 | 14%
CCOc1cccc(CN2CCN(Cc3ccc(C)o3)C(CCO)C2)c1O (stereo not drawn) | 7% | . | -6 | 23% | 1.1 | 4 | -4%
CCCCCn1c(=O)[nH]c2cc(C(=O)NCCCN3CCCCC3CC)ccc2c1=O (stereo not drawn) | 11% | . | 16 | ? | 1.8 | 3 | 10%

From PubChem BioAssay

No enrichment for hits; any-hit rate near 4.9%.
